Compound activity deposited in PubChem BioAssay by ICCB-Longwood Screening Facility, Harvard Medical School.
BasE inh – inhibitors of Acinetobacter baumannii siderophore enzyme BasE; purified BasE, fluorescence polarization binding displacement; inhibition, % (test concentration not listed); 0.1% of 84,000 active;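 active means both replicates above 25% with normal brightness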;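 further: 0% = negative plate control signal and 100% = positive plate control signal; stock transfer was 100 nL into about 30 µL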
LANA-nucl inh – LANA-nucleosome interaction inhibition. FITC-LANA1-23 / chicken nucleosome fluorescence polarization; stronger effect = lower value. z-score (concentration not given with the values). 0.3% of 51,000 active;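 active means both repeat wells score below -2 in polarization z-score versus plate sample wells, excluding overly bright wells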;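 further: 100 nL library stock added to about 30 µL; numbers are from one replicate; some results filed as inactive read as strong as hits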
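test system = FITC-LANA peptide and chicken nucleosomes | amount = 240 nM purified chicken nucleosomes (480 nM peptide binding sites), final | reagent = 50 nM FITC-LANA1-23 probe | medium = TEN-BT buffer, pH 7.5 | doses = single compound addition by pin transfer, 100 nL per well | timing = 10–45 min, room temperature | detection = fluorescence polarization | repeats = duplicate plates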
* marks the source's active call; other numbers are inactive results; / = no result given; & = joins results of further samples. A portion of the library, so the mix of outcomes need not match the whole.

SMILES	BasE inh	LANA-nucl inh
COc1cc(/C=C2/SC(=S)NC2=O)ccc1OC(=O)c1cccc(C)c1	-1.6	/
CCOC(=O)c1cc2oc(C)cc2n1CC(=O)NC1CC1	1.7	1
O=C(CN1CCCCCC1=O)NCCc1ccc2c(c1)OCCO2	0.1	/
CN(CCOc1ccccc1)C(=O)C1CCN(S(=O)(=O)c2cccs2)CC1	-1.1	/
CC(C)NC(=O)CSc1n[nH]c(-c2ccc(Br)cc2)n1	4.7	/
COC(=O)c1cc(S(=O)(=O)N2CCOCC2)oc1C	1.4	/
CNC(=O)COC(=O)c1ccc(-c2cccc(C(F)(F)F)c2)o1	-4.7	/
Cc1ccc2nc(C)cc(C)c2c1	0.0	0.103
CCC(Sc1nc2ccc(N3CCOCC3)cc2c(=O)n1CCc1ccccc1)C(=O)NCc1ccco1 (configuration not stated)	-1.4	-0.739
CCc1cc(C(=O)OC)c(NC(=S)Nc2cn(CC)nc2C(N)=O)s1	4.3	0.421
O=C(Nn1cnnc1)c1cccc(C(=O)Nn2cnnc2)c1	-0.9	0.552
CCOC(=O)c1csc(Nc2ccccn2)n1	2.5	-0.0735
O=C(N/N=C1\CC2CC=CC12)c1ccc(Br)cc1 (configuration not stated)	2.8	/
CCc1ccc(S(=O)(=O)/N=C2/C=C(Nc3ccccc3)C(=O)c3ccccc32)cc1	3.7	/
CC(C)(C)c1ccc(CS(=O)(=O)CCOc2ccccc2)cc1	/	-0.388
CCn1cc(S(=O)(=O)N2c3ccc(F)cc3CCC2C)cn1 (configuration not stated)	1.4	-1.31
CC[C@]12CCCN3CCc4c(n(c5ccccc45)C(=O)C1)[C@@H]32	0.3	0.361
CCS(=O)(=O)c1ccc2oc(=O)c(/C=C(\O)C(C)(C)C)nc2c1	-1.1	-0.24
CC(=O)Oc1ccc2c(oc(=O)c3ccccc32)c1C	0.8	0.154
CCOC(=O)c1ccc(NC(=S)NCCN2CCNC2=O)cc1	1.0	/
CCOC(=O)Cn1ncn2c(c(-n3cccc3)c3c4c(sc32)CCCC4)c1=O	0.2	-0.256
CCC(=O)NC(c1ccccc1OC)c1cc(Cl)c2cccnc2c1O (configuration not stated)	0.4	-1.62
Cn1c(=O)n2ncnc2c2c3c(sc21)CCCC3	0.4	-0.794
c1ccc2c(c1)nc1n2CCNC1	5.4	-0.268
Nn1c(CSc2ccccn2)nnc1CSc1ccccn1	0.9	0.881
c1ccc(-c2noc(CSc3nnc(Cc4cccs4)n3C3CCCCC3)n2)cc1	-2.6	/
COc1ccc(N=Nc2c(N)n[nH]c2N)cc1	1.6	0.104
CC1C(=O)NN=C1C(=O)N=Nc1c(O)[nH]c2ccccc12 (configuration not stated)	5.1	-0.629
COc1ccc(N(Cc2ccno2)S(=O)(=O)c2ccccc2)cc1	-0.1	/
O=C(CNCC1CCCO1)NCc1ccco1 (configuration not stated)	-1.4	-0.877

Next part; the last 2 above are carried over.
SMILES	BasE inh	LANA-nucl inh
COc1ccc(N(Cc2ccno2)S(=O)(=O)c2ccccc2)cc1	-0.1	/
O=C(CNCC1CCCO1)NCc1ccco1 (configuration not stated)	-1.4	-0.877
Cc1cc(N2CCCC2)c2ccccc2n1	0.1	-1.07
Brc1ccc(-c2nnc(CSc3nnc(-c4ccco4)n3C3CCCCC3)o2)cc1	-3.0	/
CCOc1no[n+]([O-])c1-c1ccccc1	0.3	-0.103
COc1cc2cc3c4cc(OC)c(OC)cc4cc[n+]3c(C)c2cc1OC	0.5&-1.1	-0.799&-0.85
COc1ccc(NC(=O)Nc2cccc(C)c2)cc1	-0.3	/
Cc1ccc(C2=NN(C(=O)COC(=O)c3cc4c(C)nn(-c5ccc(F)cc5)c4s3)C(c3ccco3)C2)cc1 (configuration not stated)	-0.6	/
CC(C)C(NC(=O)c1ccco1)C(C)C	0.2	-0.087
NC(=S)/N=C1/CCN(c2ccccc2)N1	3.3	-0.711
CCOC(=O)CCc1c(C)c2ccc(OCC(=O)N(CC)CC)c(C)c2oc1=O	1.6	0.06
Cc1cc(C)n2nc(N3C(=O)c4ccccc4C3=O)nc2n1	-0.1	0.0405
CC(C)(C)NC(=O)c1c(N)no[n+]1[O-]	0.3	-0.464
Cc1occc1C(=O)Nc1ccc(Oc2ccccc2)cc1	2.7	-0.148
C(=N\N1CCCCC1)/c1cn(-c2ccccc2)nc1-c1cccnc1	1.8	/
c1ccc(C2=C(c3ccccc3)N3CCN=C3S2)cc1	-3.1	/
CC1CCC2(OC1)OC1CC3C4CC[C@H]5C[C@@H](O)CC[C@]5(C)C4CC(=O)[C@]3(C)C1C2C (some centres not stated)	-2.0	-0.911
CCN(CC)c1ccc(C2C(C#N)=C(C)NC3=C2C(=O)CC(c2ccccc2)C3)cc1 (configuration not stated)	-2.8	0.875
O=C(COc1ncnc2c(Cl)cc(Cl)cc12)NCc1ccc2c(c1)OCO2	1.3	/
Cc1cccc(N2CCN(C(c3cc4cc5c(cc4[nH]c3=O)OCO5)c3nnnn3CC3CCCO3)CC2)c1C (configuration not stated)	-2.3	0.904
Cc1cc(C)n(CC/C(N)=N/OC(=O)c2ccccc2)n1	0.5	-1.62
CCCCN(Cc1ccccc1)C(=O)C1CCCN1S(=O)(=O)c1cccc2nsnc12 (configuration not stated)	1.2	-0.826
CCc1cc(CC)c(/C=N/NC(N)=O)c(CC)c1/C=N/NC(N)=O	1.8	-0.073
c1ccc(-n2c(Sc3cnccn3)nnc2-c2cccs2)cc1	-0.3	/
N#CC(C#N)=c1s/c(=C/c2ccc(-c3ccc(S(=O)(=O)N4CCOCC4)cc3)o2)c(=O)n1-c1ccc(F)cc1	-25.9	/
CCOC(=O)Nc1ccc(Cc2ccncc2)cc1	10.8	-0.0675
O=S1(=O)CC=C(S(=O)(=O)c2ccc(Cl)cc2)C1	/	0.16
COCc1c(C(=O)OCc2ncc(-c3ccccc3)o2)oc2ccccc12	-3.1	/
CCc1nnc2c3ccccc3nc(N3CCN(c4cccc(C)c4C)CC3)n12	-0.1	/
O=C(/C=C(/O)c1cccnc1)C(F)(F)F	1.7	-0.67
Cn1c(=O)oc2cc(S(=O)(=O)NCc3cccn3Cc3ccc(Cl)cc3)ccc21	-1.8	0.272
CCOC(=O)c1c(C)n(CC)c2ccc(OC)cc12	-3.6	/
O=S(=O)(/N=C1\C=C2N(CCO)CCOC2(O)c2ccccc21)c1ccc(F)cc1 (configuration not stated)	3.7	-0.184
Cn1c(COc2ccccc2Cl)nnc1SCC(=O)N1CCNC1=O	-2.5	/
Cc1cc(C)n(-c2ccc(C(=O)N3CCCSC3=Nc3ccccc3)cc2)n1	-0.4	/
O=C(Nc1ccccc1)N1CCc2sccc2C1c1ccc(C(F)(F)F)cc1 (configuration not stated)	1.8	/
Cc1ccc(C(=O)COC(=O)C(C)N2C(=O)C3C4C=CC(C4)C3C2=O)cc1 (configuration not stated)	-1.1	-0.526
COC(=O)c1ccc(NC(=O)CN2C(=O)CCC2=O)cc1	-0.9	/
Cc1ccc(C(=O)N2CCn3c(C)ccc3C2C)cc1 (configuration not stated)	-1.7	-0.235
COC(=O)c1ccc(O)c(C(=O)OC)c1	1.6	/
O=C1NC2(CCCC2)Cc2ccccc21	-2.2	0.003
Cc1ccc(-n2ncc3c(=O)[nH]c(SC(C)C)nc32)cc1	3.5	-0.944
COc1ccc(C2=CC(=O)C=CC2=O)cc1	-0.2	0.108
COc1ccc(NC2=CC(=O)CCC2)c(OC)c1	2.4	-0.298
C/C(=N\O)c1ccccc1O	/	0.05
CC(C)c1ccc(Cc2nnc(NN3CCOCC3)[nH]c2=O)cc1	0.1	-0.0645
O=C1CC(c2ccco2)CC(O)=C1C=NC1CCCCC1N=CC1=C(O)CC(c2ccco2)CC1=O (configuration not stated)	2.9	-1.14
COc1ccc(NS(=O)(=O)c2ccc3oc(SCC(=O)N4CCc5ccccc5C4)nc3c2)cc1	-26.9	/
CC(C)c1ccc2c(c1)C1(N=C(N)Nc3nc4ccccc4n31)C(=O)N2 (configuration not stated)	1.6	/
C=CCN1C(=O)/C(=C/c2c(NCC)nc3ccccn3c2=O)SC1=S	-1.6	/
O=C1CCCN1C(=O)COc1ccc(Cl)c2ccccc12	-1.4	/
CCOc1ccc(S(=O)(=O)NCCSc2ccccc2)cc1	0.4	-0.0145
Going on with the list:
SMILES	BasE inh	LANA-nucl inh
C=CCN(CC=C)C(C)C(=O)Nc1cc2oc3ccccc3c2cc1OC (configuration not stated)	2.3	/
COc1cc(C(F)(F)F)cc(C(F)(F)F)c1C(=O)NCc1cccs1	1.7	/
CCc1nc(Cc2nc3ccccc3[nH]2)no1	0.9	0.457
CC1(C)CC(=O)C2=C(C1)Nc1ccccc1NC2c1ccccc1 (configuration not stated)	0.2	-0.802
Cc1cc(C)c(SCC(=O)NCc2ccc3c(c2)OCO3)c(C)c1	1.1	/
COc1ccc(-n2cnc3c(cnn3CCC#N)c2=N)cc1	-0.9	/
CCOC(=O)c1[nH]c(C)c(C(=O)OCC(=O)N2CCCCC2C)c1C (configuration not stated)	-2.4	/
Nc1c(Cl)cc(Cl)cc1C(=O)NO	/	2.25
CCOc1cc(C(=O)N(CC)Cc2ccncc2)cc(OCC)c1OCC	0.9	0.0615
[O-][n+]1onc2c(-c3ccccc3)nnc(-c3ccccc3)c21	2.9	-0.317
Cc1cc(C)c(C(N)=O)c(SCC(=O)c2ccccc2)n1	0.3	1.3
CO[C@@]12[C@@H]3NC3CN1C1=C(C(=O)C(N)=C(C)C1=O)[C@@H]2COC(N)=O (some centres not stated)	0.6	0.18&0.0175
CC(=O)N1C(=S)NC(=O)/C1=C\c1ccc(C(C)C)cc1	-4.4	/
Cc1csc(=O)n1CC(=O)OCCCn1c(=O)[nH]c2ccccc21	9.8	/
O=C(NCCc1ccccc1)C1CCN(C(=O)c2ccco2)CC1	0.4	0.947
O=C(CCC(=O)N1Cc2ccccc2Oc2ncccc21)N1CCCC1	0.1	/
CC1Cc2cc(C(=O)NC3CCCCC3)ccc2O1 (configuration not stated)	1.4	0.77
S=C(S)N1CCCC1	3.2	/
COc1cccc(NC(=O)CSc2nncn2N)c1	1.2	-0.625
COc1ccc(C(=O)N=Nc2c(O)n(CN3CCN(C)CC3)c3ccccc23)cc1OC	5.3	0.442

Given as comma-separated lines: six of the compounds above.
mol,BasE inh,LANA-nucl inh
O=C(CCC(=O)N1Cc2ccccc2Oc2ncccc21)N1CCCC1,0.1,/
COc1ccc(C(=O)N=Nc2c(O)n(CN3CCN(C)CC3)c3ccccc23)cc1OC,5.3,0.442
COc1cccc(NC(=O)CSc2nncn2N)c1,1.2,-0.625
Cc1cc(C)c(C(N)=O)c(SCC(=O)c2ccccc2)n1,0.3,1.3
CC(=O)N1C(=S)NC(=O)/C1=C\c1ccc(C(C)C)cc1,-4.4,/
S=C(S)N1CCCC1,3.2,/

The listing continues:
SMILES	BasE inh	LANA-nucl inh
N#Cc1cccn1-c1ncc(C(F)(F)F)cc1Cl	/	0.061
Cc1ccc(Cl)cc1N1CCN(C(=O)C2CCCN(S(=O)(=O)c3cccc4nonc34)C2)CC1 (configuration not stated)	-0.7	0.0905
Cc1cc(COC(=O)c2ccccc2Sc2ccccc2C#N)no1	-2.0	/
Cc1cccc(N2CCN(C(=O)N(C)C)CC2)c1C	-3.9	-1.45
COC(=O)C[C@H](NC(=O)[C@H](C)NC(=O)[C@@H](NC(=O)OCc1ccccc1)C(C)C)C(=O)CF	-1.4	-0.31
Cc1cc(N2CCC3CCCC(C2)N3Cc2ccccc2)n2c(n1)nc1ccccc12 (configuration not stated)	0.8	0.075
CN(C)CCNc1cc(N2CCN(C(=O)c3ccco3)CC2)c2noc3c2c1C(=O)c1ccccc1-3	11.8	6.66
C/C(=N\Nc1cccc2cccnc12)C(C)(C)C	-0.2	0.074
CCOCNC(=O)Nc1ccc(Cl)cc1	-1.0	/
C/C=C/C/C=C/CCC(=O)[C@H]1O[C@H]1C(N)=O	1.4	-0.651

Four of these compounds, reformatted.
Cc1cc(N2CCC3CCCC(C2)N3Cc2ccccc2)n2c(n1)nc1ccccc12 (configuration not stated)
  BasE inh: 0.8; LANA-nucl inh: 0.075

C/C(=N\Nc1cccc2cccnc12)C(C)(C)C
  BasE inh: -0.2; LANA-nucl inh: 0.074

CN(C)CCNc1cc(N2CCN(C(=O)c3ccco3)CC2)c2noc3c2c1C(=O)c1ccccc1-3
  BasE inh: 11.8; LANA-nucl inh: 6.66

COC(=O)C[C@H](NC(=O)[C@H](C)NC(=O)[C@@H](NC(=O)OCc1ccccc1)C(C)C)C(=O)CF
  BasE inh: -1.4; LANA-nucl inh: -0.31

Remaining list, next part:
SMILES	BasE inh	LANA-nucl inh
COC(=O)c1csc(S(=O)(=O)N=S(C)(=O)c2cccs2)c1OC (configuration not stated)	1.4	/
COc1ccc(-c2nonc2NC(=O)c2ccccc2)cc1	0.4	0.942
COc1ccc(CN(C)C(=O)CN2C(=O)C3CC=CCC3C2=O)cc1OC (configuration not stated)	1.1	/
Clc1cc(Cl)cc(OCc2nc(-c3cc(-c4ccccc4)no3)cs2)c1	2.2	/
CC1(C)C(=O)OC(c2c(F)c(F)c(F)c(F)c2F)C2(CCCCC2)C1=O (configuration not stated)	1.8	-0.274
CCOC(=O)C(C#N)c1nc2ccccc2nc1N1CCN(C(=O)c2ccco2)CC1 (configuration not stated)	1.0	/
CCOC(=O)/C=C(\C)N1CCOCC1	1.9	/
CNCC(O)C(O)C(O)C(O)CO (configuration not stated)	2.0	0.089
CCCCn1c(=O)c2oc3ccccc3c2n(Cc2cc(C)ccc2C)c1=O	-0.3	0.152
